From PubChem
Cruzain inh Det = qHTS Assay for Promiscuous and Specific Inhibitors of Cruzain (with detergent); purified cruzain, Z-FR-AMC fluorescence, 0.01% Triton; Potency, µM, inactives show max response, negative = inhibition, hits mostly inhibitors; AID 1478, 2009; 200,000 compounds, 0.43% hits;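 note: plate controls were neutral wells for no effect and buffer without enzyme for full effect; nearly all actives have a fitted effect of over 40% in size; top concentration of the series not given in the record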
Target sequence (P25779 123-467 limits assumed): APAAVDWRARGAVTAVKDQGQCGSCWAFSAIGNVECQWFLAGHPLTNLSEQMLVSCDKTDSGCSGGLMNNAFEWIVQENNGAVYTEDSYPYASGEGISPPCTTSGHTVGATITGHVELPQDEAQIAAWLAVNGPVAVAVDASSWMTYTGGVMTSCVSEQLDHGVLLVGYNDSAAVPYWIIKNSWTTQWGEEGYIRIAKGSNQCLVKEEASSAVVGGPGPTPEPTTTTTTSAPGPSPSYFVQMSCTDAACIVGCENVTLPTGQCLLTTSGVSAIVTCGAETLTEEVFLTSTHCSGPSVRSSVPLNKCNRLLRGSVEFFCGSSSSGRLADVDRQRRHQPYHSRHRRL
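Compounds were screened in titration against cruzain (1.5 nM) with 0.01% Triton X-100 to counter colloidal aggregation. Activity was the AMC fluorescence increase over 60 s after adding 2 uM Z-FR-AMC at pH 5.5.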
RE007 growth inh = qHTS Assay for Inhibitors of the HIV-1 protein Vpr; S. pombe RE007 Vpr strain, BacTiter-Glo ATP luminescence, 24 h; control for the full effect not named in the record; Potency, µM (titrated, usually from 92.2 µM), without a hit: at the highest dose activity change, negative = less growth; 360,000 compounds, 0.21% hits; active = well fitted falling curve with a large enough effect; inconclusive = small, poorly fitted or top-dose-only effect; inactive = no such curve, though single readings can be large or run the other way;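 note: % is set by controls: 0 for no effect and ±100 for the full control effect; nearly all actives have a fitted effect of over 50% in size; the assay follows cell death caused by Vpr and the record does not say whether a fall means rescue or toxicity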
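Fission yeast RE007 carrying one integrated HIV-1 vpr copy, seeded at OD 0.01 in PMG+AL medium with 23 nL pinned compound. Grown 24 h at 30 degrees; viability read by BacTiter-Glo luminescence after 5 min.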
LASV entry inh = qHTS for Inhibitors of binding or entry into cells for Lassa Virus | Lassa virus pseudotype entry inhibition, cell reporter; control for the full effect not named in the record | Potency, µM (titrated, usually from 37.9 µM), without a hit: top-dose activity change, negative = inhibition, actives largely listed as inhibitors | 300,000 compounds, 1.2% hits; active means well fitted inhibition curve with a large enough effect; inconclusive means small, poorly fitted or top-dose-only effect, or effect the other way; inactive means flat fitted curve, though single readings scatter; tested in HEK293 cells; note: % is set by controls: 0 for no effect and ±100 for the full control effect; nearly all actives have a fitted effect of over 50% in size; luciferase read-out
NS1 function inh = qHTS Assay for Inhibitors of Influenza NS1 Protein Function | S. cerevisiae slowed by influenza A NS1, growth recovery by OD600 | Potency, µM (top dose mostly 46.1 µM), for inactives: at the top dose activity, positive = more growth | 270,000 compounds, 0.4% hits; active means well fitted rising curve with a large enough effect; inconclusive means small, poorly fitted or top-dose-only effect; inactive means no such curve, though single readings can be large or run the other way; note: nearly all actives have a fitted effect of over 50% in size
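Growth recovery, yeast-based: influenza A NS1 expressed in S. cerevisiae causes slow growth, and suppressors are detected by OD600. The parent strain without NS1 is used as positive control.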
Marburg entry inh = qHTS for inhibitors of binding or entry into cells for Marburg Virus | 300,000 compounds, 1.8% hits | Marburg virus pseudotyped entry inhibition, cell reporter; control for the full effect not named in the record; about a third of the inactives were read at about 46 µM | AID 540276, 2011 | Potency, µM (doses to about 37.8 µM), for the others: at the highest dose activity change, negative = inhibition, hits mostly inhibitors; active = well fitted inhibition curve with a large enough effect; inconclusive = small, poorly fitted or top-dose-only effect, or effect the other way; inactive = flat fitted curve, though single readings scatter; tested in HEK293 cells; about a fifth of its hits are not listed in these tables; note: % is set by controls: 0 for no effect and ±100 for the full control effect; luciferase read-out
SARS PLpro yeast = qHTS of Yeast-based Assay for SARS-CoV PLP | S. cerevisiae expressing SARS-CoV PLpro, growth rescue; control for the full effect not named in the record | Potency, µM (highest dose often 32.9 µM), without a hit: at the highest dose activity, positive = growth rescue | 330,000 compounds, 0.19% hits | AID 485353, 2010; active means well fitted rising curve with a large enough effect; inconclusive means small, poorly fitted or top-dose-only effect; inactive means no such curve, though single readings can be large or run the other way; note: 0% is about no effect; nearly all actives have a fitted effect of over 55% in size; growth read by luminescence after 48 h
StopGo reporter = High Throughput Screening for Foot and Mouth Disease Virus Antivirals | human cells with a luciferase reporter of 2A StopGo recoding; control for the full effect not named in the record | Potency, µM (series often up to 57.9 µM), inactives show at the highest dose signal change, negative = less light | 410,000 compounds, 1.2% hits; active = well fitted falling curve with a large enough effect; inconclusive = small, poorly fitted or top-dose-only effect; inactive = no such curve, though single readings can be large or run the other way; tested in HEK293T cells; note: % is set by controls: 0 for no effect and ±100 for the full control effect; nearly all actives have a fitted effect of over 45% in size; luciferase light after 4 h
Cruzain noTriton = qHTS Assay for Promiscuous and Specific Inhibitors of Cruzain (without detergent) | AID 1476, 2009 | purified cruzain, Z-FR-AMC fluorescence, no detergent | Potency, µM, inactives show max response, negative = inhibition, actives largely listed as inhibitors | Cruzipain (Trypanosoma cruzi), P25779 | 200,000 compounds, 2.3% hits;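 note: plate controls were enzyme without inhibitor for no effect and buffer without enzyme for full effect; nearly all actives have a fitted effect of over 40% in size; top concentration of the series not given in the record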
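Purified cruzain at 1.5 nM, pre-incubated 15 min with compound at room temperature in 100 mM sodium acetate pH 5.5, 5 mM DTT, 0.00005% Triton X-100. Reaction started with 2 uM Z-FR-AMC; AMC fluorescence increase over 60 s gives rate.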
* = called active by the depositor; ? = inconclusive; / = no result given; & = joins results of further samples; [ ] = remark or other dose. Unless noted, calls come from the whole dose curve; as a rule, active = well fitted curve in the direction sought with a large enough effect; inconclusive = small, poorly fitted or top-dose-only effect, or another doubt; inactive = no such curve, though single readings can be large; an effect the other way counts as inactive or inconclusive. Potency is the fitted concentration of half-maximal effect.

SMILES | Cruzain inh Det | RE007 growth inh | LASV entry inh | NS1 function inh | Marburg entry inh | SARS PLpro yeast | StopGo reporter | Cruzain noTriton
O=S(=O)(c1cccc(NC(=S)N2CCN(c3ccccc3)CC2)c1)C(F)F | 1.0% | 1% | ? | 0% | 18% | -13% | ? | 3%
C/C(=N\Nc1nncc2ccccc12)c1ccc(Cl)c([N+](=O)[O-])c1 | / | -17% | 20%[46.1 µM] | 12% | 8%[46.1 µM] | 4% | -6% | /
Cc1cc(NC(=O)COC(=O)c2cc3c(s2)CCC(C)C3)no1 (configuration not stated) | 1.7% | -2% | 0% | 0% | 27% | -2% | -5% | 32µM*
Nc1cc(N)nc(SCC(=O)NCCC2=CCCCC2)n1 | / | -7% | ? | / | 8% | 1% | -17% | /
CCN1C(=O)/C(=C/c2ccc(OC)c(OC)c2)N=C1SCC(=O)NCc1ccco1 | -4.6% | -11% | 0% | 16% | -8%&-8% | -7% | 10% | 25%
Fc1ccc(-n2nnc(-c3cccnc3)n2)cc1 | / | -12% | / | -6% | / | -1% | 72%[activator] | /
COc1ccc(CNc2ncccc2[N+](=O)[O-])cc1 | / | -10% | -3%[46.1 µM] | -4% | ? | -1% | 21% | /
O=C(c1ccc(C(F)(F)F)cc1)C1CCCN(C(=O)CCN2CCCO2)C1 (configuration not stated) | / | 2% | -13%[46.1 µM] | -3% | 2%[46.1 µM] | -2% | -12% | /
COCc1ccc(C(=O)N2CCCC(N(C)CCc3ccc(OC)c(OC)c3)C2)s1 (configuration not stated) | / | 4% | 11% | -1% | 12% | ? | -2% | /
Cc1cc(C(=O)COC(=O)CN=C2NS(=O)(=O)c3ccccc32)c(C)n1CCc1ccc(Cl)cc1 | -1.3% | 19% | -5% | 17% | -17% | 20% | -20% | ?
Cc1ccc2c(c1)N(CC(=O)N1CCCCC1c1cccnc1)C(=O)CO2 (configuration not stated) | 0.6% | -4% | ? | 3% | -10% | 3% | -26% | -8%
CC(=O)Nc1nc(C(F)(F)F)cs1 | -2.8% | 6% | -12% | -12% | 17% | 1% | -9% | -2%
CCc1ccc(/C=N/NC(=O)c2nnn(-c3nonc3N)c2CN2CCc3ccccc32)cc1 | / | -21% | -27% | 19% | ? | -1% | 12% | /
Cc1ccccc1-n1nc(SCC(=O)O)sc1=S | / | 7% | / | 1% | / | 1% | 0% | /
Cn1c(SCC(=O)NNC(=O)Cc2ccccc2)nnc1-c1ccccc1 | 2.6% | -1% | 3% | 10% | 12% | 1% | -14% | -11%

Some entries already given, reduced to Marburg entry inh:
| Molecule | Marburg entry inh |
| --- | --- |
| Cc1cc(NC(=O)COC(=O)c2cc3c(s2)CCC(C)C3)no1 (configuration not stated) | 27% |
| Nc1cc(N)nc(SCC(=O)NCCC2=CCCCC2)n1 | 8% |

Other entries
SMILES | Cruzain inh Det | RE007 growth inh | LASV entry inh | NS1 function inh | Marburg entry inh | SARS PLpro yeast | StopGo reporter | Cruzain noTriton
Cc1[nH]c(=O)[nH]c(=O)c1S(=O)(=O)N1CCC(C(=O)N2CCN(c3cccc(C(F)(F)F)c3)CC2)CC1 | / | -13% | 2% | / | 1%[46.1 µM] | -2% | -9% | /
Cc1ccc(CC2CC(=O)N(c3nc4ccccc4s3)C2=O)cc1 (configuration not stated) | / | -2% | -9% | -1% | -3% | 1% | -4% | /
CSc1ccccc1NS(=O)(=O)c1ccc2c(c1)OCCO2 | -4.9% | -6% | -16%[14.3 µM] | -25% | -13% | -2% | 24% | -16%
Cc1cc(C)cc(NC(=O)CC2Oc3ccc(C)cc3NC2=O)c1 (configuration not stated) | / | -6% | / | 1% | / | 0% | -11% | /
Cc1ccc(/C=N/NC(=O)c2nnn(-c3nonc3N)c2C)o1 | / | -11% | ? | 7% | 13%[46.1 µM] | 1% | -6% | /
CC(C)(CO)NCc1c(OCc2ccc(Cl)cc2)ccc2ccccc12 | / | -7% | 2.5µM* | -24% | ? | 1% | -10% | /
COC(=O)C/C(N)=C(\C#N)C(=O)OC | / | 13% | / | 3% | / | 0% | -13% | /
Cc1cccc(NC(=O)CS(=O)(=O)Cc2ccccc2)n1 | -4.0% | 10% | 19% | 5% | 7%[46.1 µM] | 1% | -7% | 7%
O=C(CNC(=O)C1COc2ccccc2O1)N/N=C\c1ccccc1Cl (configuration not stated) | / | 0% | 9% | 7% | -11%[46.1 µM] | -4% | -15% | /
COc1ccc(-c2noc(CN(C(=O)c3ccc4c(c3)OCO4)C(C)C)n2)cc1 | / | 14% | -22% | -32% | -2%[46.1 µM] | -2% | -19% | /
O=C(NCCCO)c1ccc2[nH]c3ccccc3c2c1 | -4.4% | 3% | 20% | -3% | 8% | 6% | 18% | -1%
O=C(COc1ccccc1Cl)NNC(=O)c1cc(S(=O)(=O)N2CCOCC2)ccc1N1CCCC1 | / | 3% | 5% | -1% | ? | -1% | -19% | /
COc1cc(C(=O)NCCOc2ccccc2C)cc(OC)c1OC | / | 0% | / | -2% | / | 11% | -16% | /
CN=C1SC(CC(=O)Nc2cc(Cl)ccc2Cl)C(=O)N1C (configuration not stated) | -1.8% | -1% | -2% | -5% | -16% | 3% | -18% | 2%
COc1cc(N2C(=O)c3ccccc3C2=O)c(Cl)cc1C(=O)OCC(=O)N(C)C | / | 0% | / | 3% | -2%[46.1 µM] | 20% | 9% | /
Cc1cc(O)c2/c(=N\N)c(-c3csc(C)n3)coc2c1 | / | 9% | 13%[46.1 µM] | 15% | -17%[46.1 µM] | -3% | -2% | /
O=Cc1cn(-c2ccccc2)nc1-c1ccc2c(c1)OCCO2 | -7.0% | 4% | ? | -21% | ? | -55% | 5% | 3%
CCOC(=O)Cc1csc(NC(=O)CCCC(=O)O)n1 | / | 8% | -10% | -2% | 15% | 0% | 3% | /
Cc1ccc(C)c(NC(=O)COC(=O)CCC(=O)c2cccs2)c1 | / | 10% | 22%[46.1 µM] | / | 2%[46.1 µM] | 0% | -2% | /
COc1cccc(-c2ccc(SCC(=O)c3ccccc3)nn2)c1 | / | -10% | 10% | / | ? | -3% | 36%[activator] | /
COc1cc2c(=O)n(Cc3ccco3)c(=O)n(CC(=O)c3ccc(Br)cc3)c2cc1OC | 0.8% | -21% | 1% | 8% | -9% | 1% | -15% | ?
COc1ccc(S(=O)(=O)N2CCCCC2)cc1NC(=O)C1CSC2(C)CCC(=O)N12 (configuration not stated) | / | 7% | / | -4% | / | 3% | -16% | /
COC(=O)C1CC(=O)N(c2ccc(OCc3ccccc3Cl)cc2)C1 (configuration not stated) | / | -1% | -8% | -32% | -12% | -4% | -4% | /
CCOC(=O)N1CCN(C(=O)c2ccc(Cn3c(=S)[nH]c4cc(C(=O)OC)ccc4c3=O)cc2)CC1 | / | 4% | / | 6% | / | 2% | -3% | /
COC(=O)c1c(NC(=O)C2CC2)sc2c1CCCC2 | -5.7% | -7% | / | -94% | / | -12% | -9% | -7%
N#C/C(C(=O)NCc1ccccc1)=C1/N=C(NC(=O)c2cccs2)c2ccccc21 | -4.5% | 2% | -7% | 2% | -13% | 26% | -16% | 25µM*
N#Cc1cc(Br)ccc1N=C1CCCN1c1ccccc1 | 3.0% | -10% | ? | 12% | -39% | -18% | -16% | -5%
COc1cccc(CNC(=O)CN2C(=O)CCSc3ccc(S(=O)(=O)N4CCCC4)cc32)c1 | / | 6% | / | 9% | / | -5% | -3% | /
CCCCn1c(O)c(C(CC)=Nc2ccc(OCC)cc2)c(=O)[nH]c1=O | -9.4% | 2% | 0.33µM* | / | -3% | 4% | ? | 3%
CCCNc1c(N)c(=O)oc2ccccc12 | -0.2% | 5% | 2% | 1% | ? | 16% | 27% | 0%
O=C(N/N=C/C=C/c1ccco1)c1cccs1 | / | -19% | 18%[46.1 µM] | / | 13%[46.1 µM] | 3% | 40%[activator] | /
CCOC(=O)c1ccc2c(c1)N(Cc1ccccc1)C(=O)c1ccccc1S2 | 0.2% | / | -21%[46.1 µM] | / | / | / | 3% | -18%
NS(=O)(=O)c1cccc(NC(=O)CN2C(=O)C(=O)N(Cc3ccccc3)C2=O)c1 | / | 10% | 7%[46.1 µM] | / | 6%[46.1 µM] | 1% | -9% | /
Cc1ccc(C)c(S(=O)(=O)N2CCN(c3ncccn3)CC2)c1 | / | 3% | -3% | -6% | 0%[46.1 µM] | -2% | -11% | /
COc1cccc(Nc2cc(-c3ccccc3)nc(C)n2)c1 | -11% | / | 19%[46.1 µM] | / | 1%[46.1 µM] | / | 28% | -4%
COc1ccc(CC(NC(C)=O)C(=O)NC2CCN(S(=O)(=O)c3ccccc3)CC2)cc1OC (configuration not stated) | 1.3% | -5% | -19% | 1% | -3%&-5% | 1% | 10% | 3%
CCCc1nnc(NC(=O)COc2ccc3c(c2)OCO3)s1 | / | -7% | 6%[46.1 µM] | 4% | ? | 8% | 11% | /
CCOc1ccc(C2C(C(=O)c3ccc(C)o3)=C(O)C(=O)N2CCCN(CC)CC)cc1 (configuration not stated) | / | -6% | / | 1% | / | 0% | -9% | /
COc1ccc(N2CCN(C(=O)c3ccccc3Br)CC2)c([N+](=O)[O-])c1 | / | 12% | -5%[46.1 µM] | / | ? | 0% | ? | /
CCOc1ccccc1/C=C(\C#N)C(=O)Nc1cccc(C(=O)O)c1 | / | 15% | 5% | 3% | 6%[46.1 µM] | 1% | 5% | /
COc1ccc(NC(=O)CN(c2ccc(OC)c(Cl)c2)S(=O)(=O)c2ccccc2)cc1 | / | -16% | / | 9% | / | 0% | 20% | /
O=C(Nc1nnc(-c2ccccc2)o1)c1cc(Cl)sc1Cl | 3.1% | 13% | 14% | -12% | -11% | ? | -5% | ?
CC(=O)c1cccc(NC(=O)Nc2nnc(N3CCCC3)s2)c1 | -6.5% | / | -9%[46.1 µM] | / | ? | / | 48%[activator] | ?
